Insulin prom inh: TRM-6 insulin promoter activity inhibition | TRM-6 cells (human fetal islet line), insulin promoter-eGFP reporter, imaging; reporter expression induced with tamoxifen | inhibition, % at 2 µM | 0.9% of 130,000 active;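 active means inhibition above the mean plus 3 SD, with well images judged a real hit on visual review, cut at about 60% in these data, passing the limit was not always enough; inconclusive means inhibition over the cutoff but images rejected on review; inactive means inhibition not above the cutoff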
RGS16-Gao: modulates binding between human RGS16 and Galphao; O15492+P09471; bead-based flow cytometry RGS16-Galphao binding, fluorescence; actives lie on both sides; binding response (% of control), % at 10 µM; 0.38% of 220,000 active; AID 1441;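 active means below 25% or above 175%, edge rows of some plates excepted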;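 further: Galphao activated by GDP with aluminum fluoride before binding; 100% = wells without compound and 0% = beads without RGS; some results beyond the cut were filed as inactive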
Target sequence (O15492 whole entry, looked up): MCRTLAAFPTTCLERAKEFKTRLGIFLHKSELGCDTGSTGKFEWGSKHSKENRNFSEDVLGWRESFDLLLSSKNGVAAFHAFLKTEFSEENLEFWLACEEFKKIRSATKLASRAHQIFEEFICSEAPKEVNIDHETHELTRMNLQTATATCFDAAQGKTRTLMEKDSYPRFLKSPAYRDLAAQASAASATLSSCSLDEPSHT
Target sequence (P09471 whole entry, looked up): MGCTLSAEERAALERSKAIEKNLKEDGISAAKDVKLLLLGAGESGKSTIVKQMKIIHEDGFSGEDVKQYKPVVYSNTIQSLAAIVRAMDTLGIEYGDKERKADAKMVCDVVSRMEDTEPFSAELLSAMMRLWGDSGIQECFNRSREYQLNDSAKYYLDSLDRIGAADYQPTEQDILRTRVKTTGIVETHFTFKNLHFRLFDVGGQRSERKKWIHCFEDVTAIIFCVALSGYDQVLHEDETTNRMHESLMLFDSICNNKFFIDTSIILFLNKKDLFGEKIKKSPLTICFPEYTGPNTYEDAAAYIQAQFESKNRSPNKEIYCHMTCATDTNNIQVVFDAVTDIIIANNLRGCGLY
GALR2 agonist: agonists of human galanin receptor 2 (GALR2) | activation, %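 (tested at 5 µM)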 | O43603 | 0.48% of 140,000 active | AID 803 | GALR2-expressing cells, agonist activation read-out;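 active means above mean plus 3 SD of all compounds, about 5% in these data, not always enough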;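 further: 0% = vehicle buffer wells and 100% = reference agonist at full effect; tested in CHO reporter cells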
Target sequence (O43603 whole entry, looked up): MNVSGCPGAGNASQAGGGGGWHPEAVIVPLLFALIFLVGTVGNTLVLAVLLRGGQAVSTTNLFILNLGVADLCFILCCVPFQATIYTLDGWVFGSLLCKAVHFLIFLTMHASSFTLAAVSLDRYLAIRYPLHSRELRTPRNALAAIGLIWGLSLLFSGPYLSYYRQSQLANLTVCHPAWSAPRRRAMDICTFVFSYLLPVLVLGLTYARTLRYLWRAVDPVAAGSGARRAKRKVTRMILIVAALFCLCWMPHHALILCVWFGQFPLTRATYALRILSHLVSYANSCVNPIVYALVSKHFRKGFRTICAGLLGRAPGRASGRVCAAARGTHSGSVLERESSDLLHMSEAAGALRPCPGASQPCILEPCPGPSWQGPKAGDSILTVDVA
PKD1 inh: PKD1 (human) kinase inhibition. PKD1 kinase fluorescence polarization assay. 0.056% of 200,000 active. inhibition, %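 (about 10 µM by stock and volumes)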;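 active means inhibition of 50% or more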;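 further: controls were vehicle for no effect and a reference inhibitor for full effect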
HSV augment: HSV replication enhancement. HSV replication augmentation in cells, fold increase. maximum fold increase. 0.005% of 220,000 active. AID 1956;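 active means peak rise of 1.5-fold or more in the series; inconclusive means self-fluorescent or not available for retest; tested in PC3 cells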;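 further: first round at 10 µM; read as green reporter fluorescence; hits show the peak of a series up to 25 µM; 1 = signal of infected wells without compound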
Insulin prom inh cell count: second read-out of Insulin prom inh, no call of its own (marks repeat the call); normalized cell count, %; measured here: cell count, toxicity; reference of the scale not given here;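 cells exposed to compound for 48 h; stained nuclei by imaging scaled within each plate; lower means fewer cells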
HSV augment primary fold: second read-out of HSV augment, no call of its own (marks repeat the call); fold increase; compound at 10 µM; measured here: primary screen fold increase 10 uM; tested in PC3 cells;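 GFP signal in the first replicate; 1 = infected wells without compound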
* marks the source's active call; other numbers are inactive results; i = inactive; u = inconclusive; x = not tested or not shown.

mol | Insulin prom inh cell count | GALR2 agonist | HSV augment | HSV augment primary fold | Insulin prom inh | PKD1 inh | RGS16-Gao
O=C(NCc1ccc2c(c1)OCO2)c1cccc(S(=O)(=O)N2CCOCC2)c1 | 35 | -1.7 | i | 1 | -365 | -11 | 101
CC1(C)C([N+](=O)[O-])C(c2ccc(F)cc2)NC(c2ccc(F)cc2)C1[N+](=O)[O-] (stereo unspecified) | x | x | i | 1.1 | x | x | 100
CC(=O)Cc1nsc(NC(=O)c2cccc(F)c2)n1 | 58 | x | i | 1 | 64 | -9 | 99
COC(=O)c1ccc(N2CCN(C)CC2)c(NC(=O)COc2ccc(OC)cc2)c1 | 78 | -1.0 | i | 0.92 | 9 | -8 | 101
O=C1CC(=O)CC(c2ccccc2Cl)C1 | 155 | -2.3 | i | 0.72 | 33 | -2 | 104
CC(=O)c1c(C)[nH]c(C(=O)NCc2ccco2)c1C | 93 | x | i | 1.1 | 45 | 3 | 100
CCCc1nc2ccc(NC(=O)NCCC(=O)OCC)cc2c(=O)n1Cc1cccc(Cl)c1 | x | -2.5 | i | 0.89 | x | -2 | 98
Brc1ccccc1OCCCCCN1CCCC1 | 152 | -3.4 | i | 0.84 | -52 | -7 | 101

Next section; the last three above are carried over.
mol | Insulin prom inh cell count | GALR2 agonist | HSV augment | HSV augment primary fold | Insulin prom inh | PKD1 inh | RGS16-Gao
CC(=O)c1c(C)[nH]c(C(=O)NCc2ccco2)c1C | 93 | x | i | 1.1 | 45 | 3 | 100
CCCc1nc2ccc(NC(=O)NCCC(=O)OCC)cc2c(=O)n1Cc1cccc(Cl)c1 | x | -2.5 | i | 0.89 | x | -2 | 98
Brc1ccccc1OCCCCCN1CCCC1 | 152 | -3.4 | i | 0.84 | -52 | -7 | 101
Cc1nn(Cc2ccc([N+](=O)[O-])cc2)c(=O)n1-c1ccc(F)cc1 | x | -0.9 | i | 0.81 | x | 2 | 101
CCOC(=O)C1CCN(C(=S)NC2CC3C=CC2C3)CC1 (stereo unspecified) | x | x | i | 1.1 | x | x | 98
CSc1nc2ccc(N3C(=O)C4CCCCC4C3=O)cc2s1 (stereo unspecified) | x | -0.8 | i | 1.1 | x | 2 | 77
COc1ccccc1/C=C\C=N\NC(=O)CCn1nnc2ccccc21 | 33 | -1.1 | i | 1 | -58 | -12 | 99
CCc1cccc2c(C=C(C#N)C#N)cn(CC(=O)N3CCCCCC3)c12 | 98 | -2.4 | i | 0.89 | -32 | -13 | 107
Cc1cccc2nc(Cn3c(=O)n(CCC(=O)NCc4ccco4)c(=O)c4sccc43)cc(=O)n12 | x | -1.3 | i | 0.93 | x | -14 | 106
Cc1ccc(S(=O)(=O)/N=C(\CN2CCOCC2)N2CCOCC2)cc1 | 92 | -0.2 | i | 0.75 | -5 | 0 | 103
Cn1c(CN2CCCC2)nc2cc(NC(=O)Nc3ccccc3)ccc21 | 172 | -0.7 | i | 0.78 | -262 | -4 | 99
O=C(NCc1ccco1)c1cnc2ccccn2c1=O | x | -1.1 | i | 0.8 | x | -8 | 94
CCOc1ccc(-n2c(=S)sc3c(=O)[nH]c(SCC(=O)NCC4CCCO4)nc32)cc1 (stereo unspecified) | 84 | -1.1 | i | 1 | -50 | -15 | 112
Cc1nn2c(SCC(=O)c3cccs3)cc(C(C)(C)C)nc2c1-c1ccccc1 | 72 | -1.1 | i | 1 | 0 | 7 | 95
CN1CCC(OC(=O)COc2ccc(Cl)cc2Cl)CC1 | 63 | x | i | 0.85 | -453 | -8 | 103
Cc1cccc(Cn2c(N(C)CCO)nc3c2c(=O)[nH]c(=O)n3C)c1 | x | -1.7 | i | 1.1 | x | 3 | 102
COc1ccc(CCNC(=O)COC(=O)c2cc(S(=O)(=O)NCc3ccccc3)ccc2O)cc1OC | x | x | i | 1 | x | x | 92
CN1C2CCC1CC(NC(=O)CSc1ccc(C(C)(C)C)cc1)C2 (stereo unspecified) | x | x | i | 0.96 | x | x | 102
CC(C)(C)c1ccc(OC2=CS(=O)(=O)c3ccccc32)cc1 | 95 | -1.3 | i | 0.93 | 47 | -10 | -20
CCc1nnc(NC(=O)CSc2nnc(-c3ccoc3C)n2CC(C)C)s1 | 90 | -0.5 | i | 0.79 | -9 | -8 | 102
COC(=O)c1c(N)sc2c1CC(C)(C)OC2 | 123 | x | i | 0.97 | 20 | 5 | 102
COc1cc(C2C(C#N)=C(N)Oc3n[nH]c(-c4ccccn4)c32)cc(OC)c1OC (stereo unspecified) | x | -1.1 | i | 0.74 | x | -11 | 92
CCC(=O)OC1CSc2nc3ccccc3n2C1 (stereo unspecified) | x | -2.2 | i | 0.97 | x | -1 | 99
CC(NC(=O)COc1ccc(/C=N/NS(=O)(=O)c2ccccc2)cc1)c1ccccc1 (stereo unspecified) | 101 | -0.9 | i | 0.9 | -10 | -5 | 101
COc1ccc(CN(CC2CCC(C(=O)O)CC2)C(=S)Nc2cccc(C)c2)cc1 (stereo unspecified) | x | x | i | 0.98 | x | 5 | 102
COc1ccc(C2C3=C(CC(C)(C)CC3=O)Nc3cc4c(cc32)OCO4)cc1 (stereo unspecified) | 168 | -0.5 | u | x | 23 | -6 | 109
COCCN(C(=O)CSc1nnc(Nc2ccc(C)cc2)s1)c1c(N)n(CC(C)C)c(=O)[nH]c1=O | 100 | x | i | 0.99 | -19 | -4 | 110
Cc1ccc(OCC(=O)N/N=C/c2ccc3c(c2)OCO3)cc1C | 88 | x | i | 0.97 | -3 | 5 | 99
COC(=O)c1cc(C(C)=O)n2ccccc12 | 87 | 0.0 | i | 0.88 | 4 | 0 | 104
CCC(=O)c1ccc(OCC(=O)NC2(C#N)CCCCC2)cc1 | 132 | x | i | 0.92 | 21 | -4 | 104
COC(=O)CNS(=O)(=O)c1ccc(Cc2ccc(S(=O)(=O)NCC(=O)OC)cc2)cc1 | x | -2.2 | i | 0.91 | x | 0 | 100
O=C(CSc1ncn[nH]1)Nc1ccccc1-c1ccccc1 | 50 | -0.8 | i | 0.97 | 51 | 23 | 105
O=C(Nc1ccccc1)c1ccc(S(=O)(=O)NCc2ccco2)cc1 | 135 | -3.0 | i | 0.87 | 7 | -9 | 100
Cc1ccc(/C(N)=N/OC(=O)c2cccc(F)c2)cc1 | 133 | -3.7 | i | 0.84 | 14 | -9 | 109
S=c1[nH]nc(Cc2cccc3ccccc23)o1 | 60 | -0.6 | i | 0.93 | 47 | -2 | 87

An excerpt of these results, with two lines to a compound.
Second line of a record: Insulin prom inh cell count	GALR2 agonist	HSV augment	HSV augment primary fold	Insulin prom inh	PKD1 inh	RGS16-Gao
O=C(Nc1ccccc1)c1ccc(S(=O)(=O)NCc2ccco2)cc1
  135	-3.0	i	0.87	7	-9	100
Cc1ccc(OCC(=O)N/N=C/c2ccc3c(c2)OCO3)cc1C
  88	x	i	0.97	-3	5	99

(continued)
mol | Insulin prom inh cell count | GALR2 agonist | HSV augment | HSV augment primary fold | Insulin prom inh | PKD1 inh | RGS16-Gao
COCCOC(=O)c1sc2nc[nH]c(=O)c2c1C | x | x | i | 1 | x | 4 | 101
Cc1cc(CN2C(=O)c3ccccc3C2=O)no1 | 66 | -0.2 | x | x | -71 | -8 | 90
C#CC(C)(C)NC(=O)c1sccc1Oc1ccc(F)cc1[N+](=O)[O-] | 128 | x | i | 1 | 22 | 2 | 101
CC(C)CC(=O)NCCCN1CCN(CCCNC(=O)CC(C)C)CC1 | x | -3.7 | i | 0.88 | x | -5 | 101
O=C(CSc1nc2cc(Cl)ccc2s1)N1CCCc2ccccc21 | 96 | -1.8 | i | 0.93 | 10 | -11 | 100
CCC1(CC)C(=O)NC(=O)NC1=Nc1cccc(OC)c1 | 128 | -4.6 | i | 0.85 | -168 | -8 | 99
CO/N=C(/CNC(=O)c1cccc(Cl)c1)c1ccc(Cl)cc1 | x | -3.6 | x | x | x | -6 | 100
COc1ccc(NC(=O)c2cc3c(=O)n(C)c4ccccc4c3n2C)cc1Cl | x | x | i | 0.84 | x | x | 113
O=C(OCC1O[C@@H](OC(=O)c2cc(O)c(O)c(O)c2)[C@@H](OC(=O)c2cc(O)c(O)c(O)c2)[C@@H](OC(=O)c2cc(O)c(O)c(O)c2)[C@@H]1OC(=O)c1cc(O)c(O)c(O)c1)c1cc(O)c(O)c(O)c1 (stereo partly specified) | 61 | -1.9 | i | 0.96 | -19 | 25 | 51
CCn1ncc(C2=NOC(C(=O)NCC(C)C)C2)c1C (stereo unspecified) | x | -2.1 | i | 1.1 | x | 4 | 104
CC(C)(C)SCCNC(=O)CN1C(=O)c2ccccc2S1(=O)=O | x | -2.1 | i | 0.85 | x | -12 | 99
CC(=O)Nc1sc(N/N=C\c2ccc(O)cc2)nc1-c1cccs1 | x | x | i | 0.93 | x | x | 101
COc1ccc(N2CCN(CC(=O)Nc3cc4c(cc3C(C)=O)OCO4)CC2)cc1 | 148 | 0.0 | x | x | -28 | -9 | x
COC(=O)CSc1nnc(COc2ccc([N+](=O)[O-])cc2)n1C | x | x | i | 1 | x | -2 | 58
COc1ccc(C2C(C#N)=C(N)Oc3cc(C)n(Cc4ccco4)c(=O)c32)cc1 (stereo unspecified) | 70 | 1.5 | i | 1.1 | 38 | 0 | 102
CCCN(CCC)c1nc(C)cc(C(C#N)c2nc3ccccc3o2)n1 (stereo unspecified) | x | -1.2 | x | x | x | -8 | 105

Exported with values under each structure: four of the compounds above
Below each compound: Insulin prom inh cell count	GALR2 agonist	HSV augment	HSV augment primary fold	Insulin prom inh	PKD1 inh	RGS16-Gao
> CC(=O)c1c(C)[nH]c(C(=O)NCc2ccco2)c1C
  93	x	i	1.1	45	3	100
> CSc1nc2ccc(N3C(=O)C4CCCCC4C3=O)cc2s1 (stereo unspecified)
  x	-0.8	i	1.1	x	2	77
> Cc1nn2c(SCC(=O)c3cccs3)cc(C(C)(C)C)nc2c1-c1ccccc1
  72	-1.1	i	1	0	7	95
> COc1ccc(C2C(C#N)=C(N)Oc3cc(C)n(Cc4ccco4)c(=O)c32)cc1 (stereo unspecified)
  70	1.5	i	1.1	38	0	102

Going on with the list.
mol | Insulin prom inh cell count | GALR2 agonist | HSV augment | HSV augment primary fold | Insulin prom inh | PKD1 inh | RGS16-Gao
COc1ccccc1N1CCN(/N=C/c2cccc(O)c2)CC1 | 99 | x | i | 0.94 | 19 | -6 | 108
CCNC(=S)N/N=C/c1cc(Br)cc(Br)c1OC | 150 | -3.1 | i | 0.91 | -54 | -6 | 102
CC(C)N(Cc1nc(-c2ccccc2)no1)C(=O)C1CCCCC1 | 91 | -0.9 | i | 0.92 | -42 | -4 | 103
CCOCCCNC(=O)CN1C(=O)CSc2ccccc21 | 77 | -1.1 | x | x | 50 | -14 | 84
O=C(O)c1cccc(COc2ccc3c(c2)CCC3)c1 | x | x | i | 0.99 | x | x | 108
Cc1cccc(N2CCN(Cc3cn(C)nc3-c3ccccc3F)CC2)n1 | x | x | i | 0.78 | x | -6 | 96
O=C(C(=S)N1CCOCC1)c1c[nH]c2ccccc12 | x | x | i | 1 | x | -2 | 87
CCCOP(=O)(c1ccc(N(C)C)cc1)C(O)c1ccccc1OC (stereo unspecified) | 155 | -1.5 | i | 1.1 | 7 | -2 | 100
Cn1c(=O)c2c(nc(N3CCN(c4ccccn4)CC3)n2Cc2ccccc2Cl)n(C)c1=O | x | -2.0 | i | 0.85 | x | -3 | 103
Cc1cc(NC(=O)COc2ncnc3sc(C)c(C)c23)no1 | 81 | -2.5 | i | 0.98 | -62 | -5 | 109
Cc1cc(=O)n2nc(-c3ccccc3)sc2c1C#N | 93 | 0.1 | i | 0.94 | 9 | -6 | 105
CN(C)S(=O)(=O)c1ccc(/C(O)=C2/C(=O)C(=O)N(Cc3cccnc3)C2c2ccco2)cc1 (stereo unspecified) | x | 0.1 | i | 0.97 | x | 9 | 104
C=CCn1c(SCc2cc(C(C)=O)ccc2OCC)nc2ccccc2c1=O | 11 | 2.0 | i | 0.68 | -67 | 10 | 91
CC(C(=O)N1CCCCC1)n1sc2ccccc2c1=O (stereo unspecified) | 118 | -0.8 | i | 0.93 | 27 | -3 | 105
CC1CC(NC(=O)c2ncn[nH]2)CC(C)(C)C1 (stereo unspecified) | x | -2.0 | i | 0.94 | x | 1 | 88
Cc1ccc(S(=O)(=O)Oc2ccccc2/C=N/N=C(N)N)cc1 | x | x | i | 0.76 | x | -3 | 103
CCOC(=O)C(NCCc1ccccc1)(NC(C)=O)C(F)(F)F (stereo unspecified) | x | -1.0 | i | 1.1 | x | -13 | 106
O=C(Nc1nc2ccccc2n1CCN1CCCCC1)c1ccc(Cl)cc1 | 101 | -0.9 | x | x | 24 | 0 | 223
